Source: PubChem BioAssay (Center for Chemical Genomics, University of Michigan)
CDC25B CDK2 inh: primary biochemical HTRF screen for blockers of M-phase inducer phosphatase 2 binding to CDK2/cyclin A | AID 1259370, 2018 | HTRF CDC25B-CDK2/CyclinA binding, anti-His/anti-Flag; active compounds read high | z-score (test concentration not listed) | actives 0.72% (n = 94,000) | P30305+P24941;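 note: score is relative to mean and SD of negative controls; strong numbers were not always called active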
TAR Tat displ: TAR RNA-Tat peptide displacers, HIV-1, primary screen, biochemical, FRET, FAM/TAMRA-labeled Tat; HIV-1 TAR RNA, Tat peptide displacement FRET; active compounds read high; actives 0.6% (n = 100,000); z-score (concentration not given with the values); AID 1259389, 2018;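 note: score is relative to mean and SD of negative controls; some compounds called inactive have numbers as strong as hits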
* hit, by the source's call; · = no result given.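 Rule for the calls: active = z-score from 3 up in half or more of its runs; inactive = the rest.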

| Compound | CDC25B CDK2 inh | TAR Tat displ |
| --- | --- | --- |
| COc1cn(CC(=O)NC2CCCC2)c(CSc2nc(C)cs2)cc1=O | · | -0.13 |
| O=C1CCSc2ccc(S(=O)(=O)N3CCOCC3)cc2N1 | · | 0.68 |
| Cc1cccn2c(=O)c(C(=O)NCc3ccc4c(c3)OCO4)c(O)nc12 | -0.94 | 2 |
| O=C(O)CCc1nn2c3ccccc3nc2n(Cc2ccccc2)c1=O | -0.61 | · |
| CCN1CCN(CCCNc2ncnc3onc(-c4ccc(C)cc4)c23)CC1 | · | 1.6 |
| Cc1cc2n(n1)CCC(=O)N2CC(=O)NC1CCC(C)CC1 (configuration not stated) | · | 1.8 |
| Cc1scc(CN2CCN(c3ccccn3)CC2)c1C | · | 1.8 |
| COC(=O)C(O)c1ccccc1 (configuration not stated) | · | 1.4 |
| Cc1cc(C(=O)NCc2ccco2)c(C)o1 | -1.5 | · |
| COC(=O)c1ccc(-c2ccco2)n1CC(=O)NCCCN1CC(C)CC(C)C1 (configuration not stated) | · | -4.1 |
| N#Cc1nc(/C=C/c2ccc(F)cc2)oc1N1CCN(C(=O)c2ccco2)CC1 | 0.03 | -1.8 |
| O=C(Cn1c(=O)c2cccn2c2ccc(F)cc21)NCc1ccco1 | · | 1.4 |
| CC(C)c1ccc(NS(=O)(=O)c2cc3c(cc2Cl)NC(=O)CO3)cc1 | · | 1.9 |
| CCOC(=O)N1CC=C(c2c(C)[nH]c3ccccc23)CC1 | -2.5 | -1.3 |
| c1ccc(Cn2ncc3c(Nc4ccccc4)ncnc32)cc1 | -0.41 | · |
| Cc1c(OCc2ccc(C(=O)O)o2)ccc2c3c(c(=O)oc12)CCC3 | 0.5 | · |
| O=S(=O)(Cc1cccc(C(F)(F)F)c1)NCc1ccc2c(c1)OCO2 | -0.7 | · |
| CCN1C(=O)C2(c3ccccc31)c1c(oc3ccccc3c1=O)C(=O)N2CC1CCCO1 (configuration not stated) | -1.6 | 1.3 |
| CN(C)C=C1C(=O)CC(c2ccc(Cl)cc2)CC1=O (configuration not stated) | -1 | · |
| O=c1c2c(nc(SCCc3ccccc3)n1Cc1ccccc1)-c1ccccc1CC21CCCCC1 | -2.1 | · |
| O=C(NC1CCCC1)C(Cc1ccccc1)NS(=O)(=O)c1ccc(Br)s1 (configuration not stated) | -3 | · |
| O=C(Cn1c(=O)nc(-c2ccccc2)c2cc(Cl)ccc21)NCc1ccc2c(c1)OCO2 | · | 1.2 |
| O=C(CSC1=Nc2ccccc2C2=NC(c3ccccc3)C(=O)N12)NCc1ccccc1Cl (configuration not stated) | -0.23 | · |
| Cc1ccc(S(=O)(=O)c2nc(S(C)(=O)=O)sc2NC2CCS(=O)(=O)C2)cc1 (configuration not stated) | -1.4 | -1.1 |
| Cc1noc2ncnc(N3CCCC(C(=O)Nc4ccc5c(c4)OCO5)C3)c12 (configuration not stated) | · | 2.5 |
| Cc1cccc(C)c1N1C(=O)N2CCCN2C1c1ccc(Cl)cc1 (configuration not stated) | -0.81 | 0.85 |
| COc1cc2c(c(OC)c1)C(c1ccc3c(c1)OCO3)CC(=O)N2 (configuration not stated) | -0.64 | 2.5 |
| CCCNC(=O)c1cc(CCC)on1 | -0.34 | 0.42 |
| Cc1cc(C)n(CC(=O)NCCC(C)C)c(=O)c1C#N | · | 1.3 |
| Cc1cccn2c(=O)c3cc(C(=O)Nc4ccc(C(N)=O)cc4)n(C)c3nc12 | · | 1 |
| COCCCNC(=O)C1CCN(S(=O)(=O)N2CCOCC2)CC1 | · | 1.1 |
| Cn1c(=O)c2c(nc(NCCO)n2Cc2cccc(F)c2)n(C)c1=O | -1.3 | 2.6 |
| O=C(CSc1ncnc2c1oc1ccccc12)Nc1nc2ccccc2s1 | -3.1 | · |
| Cc1cc(=O)n2nc(N3CCCC(C(=O)NC4CCCc5ccccc54)C3)sc2n1 (configuration not stated) | -1.1 | 1.3 |
| CCC(=O)N1CCc2cc(Br)cc(S(=O)(=O)N3CCCCCC3)c21 | -1.2 | · |
| COc1cccc(C2C3=C(CCCC3=O)NC3=C2C(=O)c2ccccc23)c1 (configuration not stated) | -1.3 | 0.79 |
| CC1CCCC(NC(=O)C2N(C3CC3)C(=O)C3C(C(=O)Nc4ccc(Cl)cc4)C4C=CC32O4)C1C (configuration not stated) | 0.7 | 0.51 |
| COc1ccc2c(c1)C(C)CC(C)(C)N2C(=O)CSc1ncn[nH]1 (configuration not stated) | -0.6 | 0.61 |
| Cc1cc(-c2ccc(S(=O)(=O)Nc3ccc(F)c(Cl)c3)s2)on1 | · | 1.1 |
| CCc1nn(CC(=O)NCCCN2CCCCC2)c(=O)c2cc3sc(C)cc3n12 | 0.04 | -0.02 |
| Cc1cc(-c2ccc(S(=O)(=O)NCCN3CCCC3)s2)n[nH]1 | · | 0.38 |
| COc1ccc(Cl)cc1NS(=O)(=O)c1cc(-c2cnc(C)o2)ccc1OC | · | 1.4 |
| CCCOC(=O)C1=C(C)NC2=C(C(=O)CC(C)(C)C2)C1c1ccc(Br)cc1 (configuration not stated) | -1.2 | 0.41 |
| CCC(C)NC(=O)c1cc2c(s1)-c1cc(C)sc1CC2 (configuration not stated) | · | -0.24 |
| COC(=O)c1ccc(N2CC(C(=O)O)CC2=O)cc1 (configuration not stated) | · | 1.9 |
| O=C(NCCc1c[nH]c2ccc(F)cc12)c1cn(-c2ccc(F)cc2)nn1 | -1 | -1 |
| Cc1nn(CC(=O)NCCCN2CCCC2=O)c(=O)c2cc3occc3n12 | 0.24 | 2.4 |
| Cc1c(NC(=O)CSc2nnnn2-c2ccc(C(=O)O)cc2)c(=O)n(-c2ccccc2)n1C | -0.68 | · |
| C#C[C@]1(O)CCC2C3CCC4=Cc5oncc5C[C@]4(C)C3CC[C@@]21C (some centres not stated) | · | 1.9 |
| O=C(CCS(=O)(=O)c1ccccc1)Nc1nc(-c2nc3ccccc3s2)cs1 | · | 0.36 |

The list goes on.
| Compound | CDC25B CDK2 inh | TAR Tat displ |
| --- | --- | --- |
| CC(NS(=O)(=O)c1ccc(F)cc1)C(c1cccs1)N1CCN(c2ccc(F)cc2)CC1 (configuration not stated) | -1.8 | · |
| COC(=O)c1cc2oc(C)cc2n1Cc1nc(-c2ccc(OC)cc2)oc1C | 0.86 | 1.4 |
| Cc1c(C(=O)NC(C)C)oc2ccc3c(c12)C(O)CC(C)(C)O3 (configuration not stated) | · | 1.4 |
| Cc1nc(C(F)(F)F)ccc1C(=O)Nc1ccc(C(F)(F)F)cn1 | -2 | · |
| O=c1[nH]c2ccc(NS(=O)(=O)c3ccc4c(c3)CCCC4)cc2o1 | · | 1.1 |
| CCOC(=O)Cn1c(=O)n(C2CCCCC2)c2nc(-c3ccc(C(C)C)cc3)nc(C(N)=O)c21 | · | 1.2 |
| O=C(NC(=O)c1cc(OCC(F)(F)F)ccc1OCC(F)(F)F)Nc1c(F)cc(F)cc1F | 0.19 | · |
| COC(=O)c1ccc2c(c1)Cc1c(nc(-c3ccccc3)[nH]c1=O)O2 | -0.63 | 2.9 |
| CCC(C)NC(=O)c1cc2c(s1)-c1ccc(Cl)cc1S(=O)(=O)C2 (configuration not stated) | -1.3 | 0.03 |
| CC(C)Cn1c(C2CC(=O)N(c3ccccc3)C2)nc2ccccc21 (configuration not stated) | -1.4 | -0.58 |
| COc1cccc(C2C3=C(CC(C)(C)CC3=O)Nc3ncnn32)c1OC (configuration not stated) | · | -0.68 |
| Cc1occc1-c1nnc(SC(C)C(=O)N2CCCc3ccccc32)o1 (configuration not stated) | -1.3 | 0.87 |
| Cc1nc(N2CCN(C)CC2)cc(N2CCN(C(=O)Nc3ccccc3Cl)CC2)n1 | -0.87 | 0.66 |
| CC1=C(c2ccc(F)cc2)S(=O)(=O)NC1=NC1CCC(C)CC1 (configuration not stated) | · | 0.08 |
| N#Cc1cncc(C#Cc2ccccc2)c1 | -1.9 | · |
| Cc1nc2cc(-c3ccc(Cl)cc3)nn2c(C)c1CCC(=O)N1CCCC1 | 0.71 | · |
| O=S(=O)(NCCS(=O)(=O)N1CCN(c2ccc(F)cc2)CC1)c1ccc2ccccc2c1 | · | 0.33 |
| CCN(CC)C(=O)c1oc2ccccc2c1NC(=O)C1CC1 | · | 1.1 |
| CCOc1ccc(NS(=O)(=O)c2ccc3c(c2)C(=O)NC3)cc1 | · | 0.67 |
| OC1c2ccnn2[C@@H](O)c2ccnn21 (some centres not stated) | -1 | · |
| Cc1[nH]c2ccc(-c3nnc(SCC(=O)Nc4nccs4)o3)cc2c1C | 6.1 | 0.6 |
| Cc1nc2nc(CNc3ccccc3)[nH]n2c(=O)c1C | 0.34 | 1.1 |
| CC(=O)N1CCc2cc(S(=O)(=O)C(C)CC(=O)N3CCCCC3)ccc21 (configuration not stated) | · | 1.1 |
| O=C(CN1C(=O)CSc2ccc(S(=O)(=O)N3CCCC3)cc21)N1CCCc2ccccc21 | · | 0.92 |
| COc1c(O)cc2c(-c3ccccc3)cc(=O)oc2c1OC | · | -0.98 |
| Clc1ccc2nc(N3CCN(c4ccccc4)CC3)c3nncn3c2c1 | -1.5 | 1.1 |
| COc1ccc2ncc(S(=O)(=O)c3ccccc3)c(Nc3ccccc3)c2c1 | -0.61 | 0.11 |
| CC(C)[C@@H](C(=O)O)N1Cc2ccccc2C1=O | -1.8 | -0.63 |
| Cc1nc2ccccc2c2c1C(=O)N(c1cccc(C(=O)OCC(=O)c3ccccc3)c1)C2=O | -2.6 | 0.88 |
| CCOC(=O)CSc1n[nH]c(-c2ccncc2)n1 | 0.49 | 2.6 |

Entries listed so far that contain a CF3 group (3):
| Compound | CDC25B CDK2 inh | TAR Tat displ |
| --- | --- | --- |
| O=S(=O)(Cc1cccc(C(F)(F)F)c1)NCc1ccc2c(c1)OCO2 | -0.7 | · |
| Cc1nc(C(F)(F)F)ccc1C(=O)Nc1ccc(C(F)(F)F)cn1 | -2 | · |
| O=C(NC(=O)c1cc(OCC(F)(F)F)ccc1OCC(F)(F)F)Nc1c(F)cc(F)cc1F | 0.19 | · |

Carrying on:
| Compound | CDC25B CDK2 inh | TAR Tat displ |
| --- | --- | --- |
| CN(C(=O)Nc1cn(C)c(=O)c2ccccc12)C1CCCCC1 | · | 2 |
| Cc1cc(C(=O)NCc2ccc3c(c2)OCCCO3)nn1C | -2 | · |
| CCCCN(C)S(=O)(=O)C1CCS(=O)(=O)C1 (configuration not stated) | -2 | 1.4 |
| COc1ccc2[nH]cc(S(=O)(=O)c3ccc(C(C)C)cc3)c(=O)c2c1 | -1.5 | 1.5 |
| CCCCn1c(=O)c2sccc2n2c(CCC(=O)N3CCC(N4CCCCC4)CC3)nnc12 | · | -0.06 |
| Cc1ccc(CNc2oc(-c3ccc(S(=O)(=O)N4CCc5ccccc5C4)cc3)nc2C#N)cc1 | -2 | -1.6 |
| N#Cc1cc(Cl)ccc1N=Cc1cccc([N+](=O)[O-])c1 | -0.21 | · |
| CCn1c(C)c(C2=CCN(S(=O)(=O)c3ccc(C)cc3)CC2)c2ccccc21 | 0.82 | 0.32 |
| COCc1cc(CN2CCC(C)CC2)c(O)c2ncccc12 | -5.2 | 2.4 |
| COc1cc(OC)cc(-c2nc3n(n2)C(c2ccccc2)C2=C(CCCC2=O)N3)c1 (configuration not stated) | 0.71 | 0.79 |
| Cc1ccc2nc(CCc3ccc(NS(=O)(=O)c4c(C)nn(C)c4C)cc3)[nH]c2c1 | · | 0.47 |
| CCc1c(C)c(C#N)c2nc3ccccc3n2c1NCCCN(C)C | -1.6 | 0.57 |
| CCOc1ccccc1N(C)S(=O)(=O)c1c(/C=C/N(C)C)noc1C | · | 1.5 |
| S=c1[nH]nc(-c2ccccc2Cl)n1C1CCCCC1 | 0 | · |
| O=C(CN1CC(=O)Oc2ccccc21)OCC(=O)c1ccc(F)cc1 | 0.2 | 0.86 |
| CC1=C(C(=O)NCCN2CCCCC2C)C2(CCCCC2)OC1=O (configuration not stated) | · | 1.1 |
| CC(C)N1CCC(O)(C2CCN3Cc4ccccc4N=C23)CC1 (configuration not stated) | · | -0.32 |
| COc1ccccc1C1/C(=C(\O)c2ccccc2)C(=O)C(=O)N1c1nc2ccccc2s1 (configuration not stated) | -0.6 | -0.31 |
| CCCNS(=O)(=O)c1cc2c(cc1C)NC(=O)CO2 | · | 0.99 |
| COc1ccc(NCc2cccn2-c2nnc(N3CCCC3)s2)cc1 | · | 2.2 |
| CC(C)(C)c1ccc(OCc2nn3c(-c4ccncc4)nnc3s2)cc1 | 0.62 | 0.44 |
| Cc1oc2ncnc(N3CCCCC3)c2c1C(=O)NC1CCCCC1 | · | 1.4 |
| Cc1ccc(N(C)S(=O)(=O)c2c(C)nc3sc(C)cn3c2=O)cc1 | · | 1.4 |
| CN(Cc1cc(=O)[nH]c2ccccc12)C(=O)COc1ccccc1 | -0.29 | -0.01 |
| CCC(Sc1nnc2sc3ccccc3n12)C(=O)O (configuration not stated) | -1.2 | 0.17 |
| N#CNC=Nc1cc(Cl)cc(Cl)c1 | -1.4 | · |
| O=C1CSc2ccc(S(=O)(=O)N3CCC(C(=O)N4CCCCC4)CC3)cc2N1 | · | 1 |
| O=S(=O)(c1ccc(F)cc1)c1c(-c2ccc3c(c2)OCO3)cn2ccccc12 | · | -7.1 |
| CCNC(=O)C1=C(C)C(=O)OC12CCN(S(=O)(=O)CC)CC2 | · | 1.6 |
| Fc1ccc(CSc2nnc([C@@H]3CCCN3)o2)cc1 | -0.25 | -0.05 |
| Cc1ccccc1-c1noc(CSc2nnc(-c3ccncc3)n2-c2ccccc2)n1 | -0.18 | 0.24 |
| COc1ccc(C2NC(=O)NC(C)=C2C(=O)OCCSc2ccccc2)c(OC)c1 (configuration not stated) | 0.02 | · |

Single records, from the list above:
Profile of O=S(=O)(Cc1cccc(C(F)(F)F)c1)NCc1ccc2c(c1)OCO2 : CDC25B CDK2 inh = -0.7; TAR Tat displ = ·
Profile of CN(Cc1cc(=O)[nH]c2ccccc12)C(=O)COc1ccccc1 : CDC25B CDK2 inh = -0.29; TAR Tat displ = -0.01
Profile of COc1cccc(C2C3=C(CC(C)(C)CC3=O)Nc3ncnn32)c1OC (configuration not stated) : CDC25B CDK2 inh = ·; TAR Tat displ = -0.68
